Source: PubChem BioAssay
GLA inh pH 4.5 = alpha-galactosidase A (human) inhibition, pH 4.5. activity change, negative = inhibition, % at 105 µM. 230,000 tested, under 10 active. purified enzyme, 4-MU-alpha-Gal fluorescence, pH 4.5. AID 1467. P06280; inconclusive = small, poorly fitted or top-dose-only inhibition, or a rising curve; inactive = flat fitted curve, though single readings scatter; no compound was filed as active;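 also: 0% = full activity with enzyme and -100% = basal without enzyme; dose as in the result columns while the protocol names 77 µM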
Target sequence (P06280 whole entry, looked up): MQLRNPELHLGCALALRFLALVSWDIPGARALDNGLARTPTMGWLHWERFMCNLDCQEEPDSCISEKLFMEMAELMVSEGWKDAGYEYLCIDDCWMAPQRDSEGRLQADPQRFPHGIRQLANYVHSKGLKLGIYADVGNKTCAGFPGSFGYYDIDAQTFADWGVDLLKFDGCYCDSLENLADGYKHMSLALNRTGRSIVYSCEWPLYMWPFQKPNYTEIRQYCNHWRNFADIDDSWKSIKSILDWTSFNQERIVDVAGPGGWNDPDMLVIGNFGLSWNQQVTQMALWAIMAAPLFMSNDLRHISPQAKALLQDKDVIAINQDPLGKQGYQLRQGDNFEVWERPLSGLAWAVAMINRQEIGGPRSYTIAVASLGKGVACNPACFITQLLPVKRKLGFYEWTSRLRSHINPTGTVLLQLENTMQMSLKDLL
miR-21 FLuc = miR-21 reporter, rising signal | AID 2288 | 340,000 tested, under 10 active | Potency, µM (titrated, usually from 38.3 µM), for the others: at the top dose reporter change, positive = more light | HeLa miR-21 FLuc reporter, luciferase, 48 h; active = well fitted rising curve with a large enough effect; inconclusive = small, poorly fitted or top-dose-only effect; inactive = no such curve, though single readings can be large or run the other way;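 also: % of control where 0% means no effect; miR-21 action dims this reporter so a rising signal means less miR-21 action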
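HeLa miR-21-FLuc reporter line, endogenous miR-21; 2000 cells/well in DMEM/10% FBS; compound titration up to ~40uM final, 48 h, 37 degree Celsius; luciferase detection reagent, 15 min lysis, CCD luminescence.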
Rango release inh = inhibitors of RanGTP-induced Rango-importin beta complex dissociation; Biochemical FRET Rango-importin beta, RanGTP-induced dissociation; Potency, µM (series often up to 46.1 µM), for inactives: at the top dose activity change, negative = inhibition; 340,000 compounds, 0.071% hits; AID 540253; active means falling FRET ratio curve, often poorly fitted, with flat reads before Ran was added; inconclusive means other falling curves, or compound fluorescence or quenching; inactive means flat or rising ratio curve;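 also: potency is read from the fitted curve at half-maximal effect; % of control where 0% means no effect; nearly all actives have a fitted effect of over 45% in size; -100% = wells without RanGTP and RCC1; the record marks most hits as doubtful in a second field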
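Rango (0.1 uM)–importin beta (0.25 uM) complex; RanGTP-RCC1 trigger; 45 min RT; CFP/YFP FRET read.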
Rango complex inh = inhibitors of Rango-importin beta complex formation | Q14974 | Rango CFP/YFP FRET sensor + importin beta, 45 min | Potency, µM (series often up to 92.2 µM), without a hit: at the top dose inhibition of complex formation | 340,000 compounds, 0.031% hits; active = rising FRET ratio curve, often small or poorly fitted; inconclusive = mostly compound fluorescence or quenching in the first reads; inactive = flat curves in all reads;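 also: potency is read from the fitted curve at half-maximal effect; 0% = DMSO wells and 100% = buffer wells lacking importin beta; nearly all actives have a fitted effect of over 15% in size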
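FRET biosensor Rango (snurportin 1 IBB between N-terminal EYFP and C-terminal Cerulean), 50 nM in PBS/1 mM DTT/0.02% Tween-20/0.1% BSA, preincubated 5 min RT with compound; 0.125 microM importin beta added, 45 min RT, CFP/YFP FRET ratio read.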
* marks the source's active call; other numbers are inactive results; ? = inconclusive; nt = not tested or not shown; & = joins results of further samples; [ ] = dose if it differs, or a comment. Only part of the results is shown (hit frequency here may not be typical).

SMILES | GLA inh pH 4.5 | miR-21 FLuc | Rango release inh | Rango complex inh
CC12CCC(=O)N1C(C(=O)NNC(=O)c1ccc(Cl)cc1)CS2 (stereo not drawn) | nt | nt | -5% | 0.5%
COC(=O)c1cccc(NC(=O)Cn2cnc3c2c(=O)n(C)c(=O)n3C)c1 | -6 | -1% | 4% | -1.8%
CC1=C(C(=O)OCc2ccccc2)C(c2ccccc2-c2ccccc2)NC(=O)N1CCCCCC(=O)O (stereo not drawn) | 0&-3 | -6% | 5% | ?
Cc1ccc(S(=O)(=O)N2CCOCC2)cc1C(=O)OC(C)C(=O)c1ccccc1 (stereo not drawn) | nt | nt | 14% | 2.9%
CCOc1cc(NC(=S)NCCCOC)c(OCC)cc1NC(=O)c1ccco1 | -3 | -2% | -6% | 0.2%
CCOc1ccc(NC(=O)COC(=O)C2(C)CC2(Cl)Cl)c([N+](=O)[O-])c1 (stereo not drawn) | -25 | -15% | 0% | 5.1%
C/C(=N\NC(=S)NCc1ccccc1)c1ccc2ccccc2c1 | -5 | -1% | -1% | -0.1%
COc1ccc(CCC(=O)OCC(=O)Nc2ccc3[nH]c(=O)[nH]c3c2)cc1 | nt | nt | 9% | 0.2%
O=C(/C=C/c1ccc(Cl)cc1Cl)c1ccc[nH]1 | -5 | -25% | 11% | 0.2%
CCOc1cc(C)c(Cl)cc1S(=O)(=O)n1cnc2ccccc21 | -6 | -1% | 38% | 2.8%
CS(=O)(=O)N1CCc2cc(-c3csc(NC(=O)C(c4ccccc4)c4ccccc4)n3)ccc21 | 3 | -5% | 0% | -0.2%
COc1ccc(NC(=O)C2CC(=O)NC(Nc3cccc(C)c3)=N2)cc1 (stereo not drawn) | 4 | 3% | 0% | -2.4%
CC(C(=O)Nc1cccc([N+](=O)[O-])c1)[n+]1ccccc1 (stereo not drawn) | -2 | -1% | -20% | 2.1%
CN(C)c1ccc(C2(O)C(=O)c3ccccc3C2=O)cc1 | 4 | -8% | 13% | -0.1%
COc1ccc(S(=O)(=O)N(C)CC(=O)N2CCOCC2)cc1 | -3 | -2% | 1% | -2.3%
C(=C\c1ccccc1)/CSc1nc2ncccc2[nH]1 | 1 | -46% | 11% | -0.3%
O=C(Nc1ccc(S(=O)(=O)N2CCCCCC2)cc1)c1c(F)cccc1F | nt | 3% | 16% | -3.2%
FC(F)(F)C1=CC(c2ccc(Br)cc2)=NCCN1 | -3 | -6% | -2% | 2.2%
Nc1nnc(SC2CCCC2)s1 | 3 | -41% | -17% | 0.0%
COc1ccc(C(=O)OCc2cc(C)ccc2C)cc1S(=O)(=O)N1CCCC1 | nt | nt | 0% | -4.1%
COc1cc(C(=S)N2CCCC2)cc(OC)c1OC | -8 | -2% | -8% | 0.9%
N=C(N)SCc1ncccc1O | -1 | -4% | -10% | ?
CCN(C(=O)COC(=O)c1oc2ccccc2c1C)c1c(N)n(Cc2ccccc2)c(=O)[nH]c1=O | nt | nt | 15% | -1.5%
Nc1nc(CN2CCCCC2)cs1 | 2 | -7% | 7% | -1.6%
COc1ccccc1OCC(=O)Nc1ccc(S(=O)(=O)N2CCN(C)CC2)cc1 | 3 | -1% | 8% | -2.9%
COc1ccc(C(=O)n2nc(-c3ccccc3)nc2SC)cc1 | 3 | -5% | 35% | -0.1%
O=C(CN1CCOCC1)Nc1ccc(Oc2ccc(NC(=O)CN3CCOCC3)cc2)cc1 | -1 | 0% | -6% | 3.8%
Cc1ccc2nc(C)c(C(=O)N/N=C/c3cccs3)n2c1 | -2 | 14% | 0% | -3.5%
Cc1cc(CNC(=O)[C@H](C)[C@@H]2C[C@@]2(C)[C@@H](NC(=O)OCc2ccccc2)c2ccccc2)nn1C | 9&-8 | 3% | 1% | 0.6%
COc1ccc(NS(=O)(=O)c2ccc(NC(=O)c3ccccc3)cc2)nn1 | -12[21.1 µM] | -6% | -10% | 1.2%
Cc1ccc(S(=O)(=O)Nc2ccc(C(=O)Nc3ccncc3)cc2)cc1 | 7 | -1% | -3% | -1.3%
O=C(CNS(=O)(=O)c1cccc(C(F)(F)F)c1)NC1CCCCCC1 | nt | nt | 16% | 4.8%
CC(=O)c1cc(C#N)c(SCc2ccncc2)nc1C | -9 | -23% | -14% | 4.5%
CCN1CCN(c2ccc(NC(=O)c3cccc(S(=O)(=O)N4CCCC4)c3)cc2)CC1 | nt | nt | 2% | -4.0%
Cc1ccccc1C(=O)NCC(=O)Nc1ccc(C)c(S(=O)(=O)N2CCCCCC2)c1 | nt | 23% | -12% | -1.3%
COc1ccc(C(=O)N2CCN(c3ccc([N+](=O)[O-])c(-n4nc(C)cc4C)c3)CC2)cc1 | -6 | -5% | -3% | 0.1%
Cc1ccn2cc(CSc3ccccc3N)nc2c1 | 9 | -38% | 12% | -2.1%
Cc1noc(C)c1COC(=O)c1cccc(N(C)C)c1 | 5 | 0% | -2% | -2.4%
CCOCCCNCc1cc(Cl)ccc1OCC | -10 | -3% | 2% | 0.0%
Clc1ccccc1CN1CCN(/N=C/c2ccncc2)CC1 | -2 | 14% | 0% | 2.6%
O=[N+]([O-])c1cccc(-c2cc3ccccc3[nH]2)c1 | nt | -17% | 15% | -0.9%
COc1ccccc1/C=N/NC(=O)c1c(-c2ccccc2)noc1C | nt | 1% | 34% | -0.3%
COc1ccc(NCc2cc3cc(OC)ccc3[nH]c2=O)cc1 | 2 | -1% | ? | ?
COc1ccccc1-n1cc(C(=O)NCC(=O)N2CCN(c3ccccn3)CC2)c2ccccc2c1=O | 1 | -10% | 9% | -2.5%
Cc1cccn2c(=O)c3cc(C(=O)NCc4ccccc4)c(=N)n(CCCN4CCOCC4)c3nc12 | nt | nt | ? | ?
O=Nc1nc2ncccn2c1-c1ccccc1 | nt | nt | 1% | 0.0%
CCOC(=O)c1c(=O)n(O)c2ccc(OC)cc2[n+]1[O-] | -1 | -5% | -24% | 3.8%
CN1CCCN(C(=O)CC2(CC(=O)O)CCCCC2)CC1 | 6 | -6% | -6% | 1.8%
COc1cc(/C=N\Nc2nc(-c3ccc(C)cc3)c(NC(C)=O)s2)ccc1O | -6 | -8% | 9% | -2.8%
CC(=O)NC12CC3CC(C)(C1)CC(NC(C)=O)(C3)C2 | 9 | 0% | 0% | -0.9%
CCOc1ccc(-c2cc(C)n3nc(C(N)=O)cc3n2)cc1 | 5 | 11% | 0% | 0.8%
Cc1nn(Cc2cccc(C(N)=O)c2)c(C)c1Br | -4 | -6% | 1% | 0.2%
Cc1ccc2c(c1)c1c(n2CC(O)CNC(CO)(CO)CO)CCCC1 (stereo not drawn) | -9 | -5% | -16% | 1.3%
O=C(CNS(=O)(=O)c1ccc(F)c(Cl)c1)N1CCCC1 | nt | -5% | ? | 1.6%
COc1cccc(C(C)N(C)Cc2nc(-c3ccoc3)oc2C)c1 (stereo not drawn) | 4 | 0% | 1% | -3.9%
CCCN(CC(=O)Nc1ccccc1C)C(=O)Cc1cccs1 | nt | nt | -15% | 4.6%
COc1ccc(C(CCN2CCCC(C)C2)c2c(OC)cc(OC)c3c(C)cc(=O)oc23)cc1 (stereo not drawn) | -6 | 7% | -10% | -2.4%
CCN(CC)S(=O)(=O)c1ccc2c(c1)nc(CCC(=O)OCC(=O)Nc1cc(Cl)cc(Cl)c1)n2C | -12 | -9% | -1% | -0.7%
N#Cc1ccc(Oc2ccc(C(F)(F)F)cc2NC(=O)c2ccc(F)cc2)cc1 | -20 | -4% | 33% | 0.9%
O=C(NCc1cccnc1)Nc1ccc2c(c1)OCO2 | -2 | -40% | -4% | 4.0%
Next structures.
SMILES | GLA inh pH 4.5 | miR-21 FLuc | Rango release inh | Rango complex inh
COc1cc(CCCN2C(N)=NC[C@@H]2c2ccccc2)cc(OC)c1OC | -6 | 0% | 15% | 2.6%
CCOc1ccc2c(c1)c(N=O)c(O)n2C | -21 | -1% | 3% | ?
Cc1cc([N+](=O)[O-])nn1CC(=O)NC(C)c1ccccc1 (stereo not drawn) | nt | 0% | -3% | 0.4%
Cc1nn(S(=O)(=O)c2cccs2)c(C)c1Sc1ccccc1 | 0 | -5% | nt | nt
O=C(NC1CCCC1)C(c1cccs1)N(Cc1ccco1)C(=O)Cn1nnc(-c2cccs2)n1 (stereo not drawn) | -15 | -4% | -18% | -0.2%
O=C(Nc1ccc(-n2ccc(C(F)(F)F)n2)cc1)c1cccs1 | nt | -45% | -25% | 2.8%
C/C(=N\NC(=O)CCCOc1ccc(Cl)cc1C)c1ccc(C)o1 | 5 | -1% | 7% | -1.2%
COc1ccccc1/C=C/C=N/n1c(-c2n[nH]c3c2CCC3)n[nH]c1=S | -6 | 27% | 28% | 2.3%
COc1ccc(Cl)cc1NC(=O)Nn1cnnc1 | -2 | 0% | 2% | 1.3%
CCOC(=O)c1ccc(N2C(=O)CC(Nc3ccc(O)cc3)C2=O)cc1 (stereo not drawn) | 7 | 10% | 0% | -2.0%
N#Cc1ccc(OC(=O)c2cnccn2)cc1 | nt | 3% | -2% | 5.2%
COc1ccccc1-c1c(C)oc2c(CN3CCN(C)CC3)c(O)ccc2c1=O | -7 | -7% | -8% | -0.9%
O=C(COC(=O)CC1SC(N2CCCC2)=NC1=O)Nc1ccc(Br)cc1 (stereo not drawn) | nt | nt | 5% | -0.7%
COc1cccc(NC(=O)CN2CCN(S(=O)(=O)c3ccc(C(C)C)cc3)CC2)c1 | -15 | 14% | -15% | 6.0%
O=C(NCC1CCCO1)C1CC1(c1ccccc1)c1ccccc1 (stereo not drawn) | -3 | -6% | -4% | 1.6%
COc1cccc(CC(Cc2nc3ccccc3[nH]2)c2nc3ccccc3[nH]2)c1 (stereo not drawn) | -9 | -16% | -3% | ?
CCN(CCN1CCCC1)C(=O)C1CCC(=O)N(CCCN2CCOCC2)C1 (stereo not drawn) | nt | 2% | -1% | 1.0%
CS(=O)(=O)c1ccc(C(=O)NNC(=O)c2ccccc2-n2cccc2)cc1 | nt | nt | 6% | -1.3%
Cc1[nH]n(C(N)=S)c(=O)c1N=Nc1ccccc1C(F)(F)F | nt | -24% | 7% | -3.0%
CC(C#N)Sc1ccc(S(=O)(=O)N2CCCCC2)cn1 (stereo not drawn) | nt | nt | -18% | 2.2%

A different layout for 6 compounds above.
smiles,GLA inh pH 4.5,miR-21 FLuc,Rango release inh,Rango complex inh
COc1ccc(Cl)cc1NC(=O)Nn1cnnc1,-2,0%,2%,1.3%
O=C(NCC1CCCO1)C1CC1(c1ccccc1)c1ccccc1 (stereo not drawn),-3,-6%,-4%,1.6%
COc1ccccc1-c1c(C)oc2c(CN3CCN(C)CC3)c(O)ccc2c1=O,-7,-7%,-8%,-0.9%
C/C(=N\NC(=O)CCCOc1ccc(Cl)cc1C)c1ccc(C)o1,5,-1%,7%,-1.2%
O=C(COC(=O)CC1SC(N2CCCC2)=NC1=O)Nc1ccc(Br)cc1 (stereo not drawn),nt,nt,5%,-0.7%
COc1cc(CCCN2C(N)=NC[C@@H]2c2ccccc2)cc(OC)c1OC,-6,0%,15%,2.6%

(listing goes on)
SMILES | GLA inh pH 4.5 | miR-21 FLuc | Rango release inh | Rango complex inh
CCOc1ccc(/C=N/NC(=O)C(C)Sc2ccccn2)cc1OCC (stereo not drawn) | 3 | -8% | -12% | 8.7%
Cc1ccn2c(NC(=O)c3ccccc3)c(-c3cccs3)nc2c1 | 5 | -24% | -3% | 2.3%
COc1ccc(Cn2nnnc2C(c2cc(OC)ccc2OC)N2CCC(C(N)=O)CC2)cc1 (stereo not drawn) | -4 | -2% | 8% | 4.5%
CCN(C(=O)CSc1n[nH]c(N)n1)c1cccc2ccccc12 | nt | nt | -12% | -0.7%
CCOC(=O)c1cnc(SCC(=O)Nc2ccc(NC(C)=O)c(OC)c2)nc1N | 3 | -5% | 4% | -3.5%
CCOC(=O)C12CNC(=O)C(C(=O)OCC)(CNC1=O)C2 | -3 | -1% | 17% | -0.9%

Record cards (already shown).
CC(=O)NC12CC3CC(C)(C1)CC(NC(C)=O)(C3)C2 is listed as GLA inh pH 4.5: 9; miR-21 FLuc: 0%; Rango release inh: 0%; Rango complex inh: -0.9%
COc1ccc(Cn2nnnc2C(c2cc(OC)ccc2OC)N2CCC(C(N)=O)CC2)cc1 (stereo not drawn) is listed as GLA inh pH 4.5: -4; miR-21 FLuc: -2%; Rango release inh: 8%; Rango complex inh: 4.5%
